MARV entry inh: inhibitors of Marburg virus binding or cell entry. Marburg virus pseudotyped entry inhibition, cell reporter; control for the full effect not named in the record; about a third of the inactives were read at about 46 µM. Potency, µM (top dose mostly 37.8 µM), without a hit: top-dose activity change, negative = inhibition, most hits filed as inhibitors. 300,000 compounds, 1.8% hits. AID 540276; active = well fitted inhibition curve with a large enough effect; inconclusive = small, poorly fitted or top-dose-only effect, or effect the other way; inactive = flat fitted curve, though single readings scatter; tested in HEK293 cells; about a fifth of its hits are not listed in these tables; also: % is scaled to controls: 0 for no effect and ±100 for the full control effect; luciferase read-out
SARS PLP yeast: blocks SARS-CoV papain-like protease in a yeast assay; AID 485353; 330,000 compounds, 0.19% hits; Potency, µM (series often up to 32.9 µM), without a hit: at the top dose activity, positive = growth rescue; S. cerevisiae expressing SARS-CoV PLpro, growth rescue; control for the full effect not named in the record; active means well fitted rising curve with a large enough effect; inconclusive means small, poorly fitted or top-dose-only effect; inactive means no such curve, though single readings can be large or run the other way; also: 0% is about no effect; nearly all actives have a fitted effect of over 55% in size; growth read by luminescence after 48 h
Cruzain inh noDet: blocks cruzain activity in detergent-free assay | Potency, µM, inactives show max response, negative = inhibition, usual class: inhibitors | P25779 | purified cruzain, Z-FR-AMC fluorescence, no detergent | 200,000 compounds, 2.3% hits;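 also: plate controls were enzyme without inhibitor for no effect and buffer without enzyme for full effect; nearly all actives have a fitted effect of over 40% in size; top concentration of the series not given in the record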
Target sequence (P25779 123-467 limits assumed): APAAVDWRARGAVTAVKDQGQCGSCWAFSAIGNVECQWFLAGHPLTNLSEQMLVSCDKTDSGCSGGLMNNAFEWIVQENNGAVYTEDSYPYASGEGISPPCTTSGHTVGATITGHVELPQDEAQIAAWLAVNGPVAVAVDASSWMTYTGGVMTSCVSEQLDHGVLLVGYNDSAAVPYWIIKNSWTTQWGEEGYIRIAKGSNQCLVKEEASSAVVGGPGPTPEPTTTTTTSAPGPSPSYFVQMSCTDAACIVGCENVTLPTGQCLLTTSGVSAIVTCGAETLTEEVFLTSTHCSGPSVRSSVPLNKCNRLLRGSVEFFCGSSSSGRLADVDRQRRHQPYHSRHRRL
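Purified cruzain at 1.5 nM, pre-incubated 15 min with compound at room temperature in 100 mM sodium acetate pH 5.5, 5 mM DTT, 0.00005% Triton X-100. Reaction started with 2 uM Z-FR-AMC; AMC fluorescence increase over 60 s gives rate.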
Cruzain inh Det: inhibitors of Trypanosoma cruzi cruzain with detergent. P25779. purified cruzain, Z-FR-AMC fluorescence, 0.01% Triton. Potency, µM, for inactives: max response, negative = inhibition, actives largely listed as inhibitors. 200,000 compounds, 0.43% hits. AID 1478;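 also: plate controls were neutral wells for no effect and buffer without enzyme for full effect; nearly all actives have a fitted effect of over 40% in size; top concentration of the series not given in the record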
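Sodium acetate buffer (100 mM, pH 5.5) containing 5 mM DTT and 0.01% Triton X-100 hosted 1.5 nM cruzain and test compound for 15 min at room temperature. Cleavage of 2 uM Z-FR-AMC was then tracked by fluorescence.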
2A StopGo: FMDV 2A StopGo reporter, luciferase signal; human cells with a luciferase reporter of 2A StopGo recoding; control for the full effect not named in the record; Potency, µM (highest dose often 57.9 µM), for the others: top-dose signal change, negative = less light; 410,000 compounds, 1.2% hits; active = well fitted falling curve with a large enough effect; inconclusive = small, poorly fitted or top-dose-only effect; inactive = no such curve, though single readings can be large or run the other way; tested in HEK293T cells; also: % is scaled to controls: 0 for no effect and ±100 for the full control effect; nearly all actives have a fitted effect of over 45% in size; luciferase light after 4 h
NS1 inh: influenza NS1 inhibition; 270,000 compounds, 0.4% hits; Potency, µM (series often up to 46.1 µM), without a hit: at the highest dose activity, positive = more growth; S. cerevisiae slowed by influenza A NS1, growth recovery by OD600; AID 2326; active means well fitted rising curve with a large enough effect; inconclusive means small, poorly fitted or top-dose-only effect; inactive means no such curve, though single readings can be large or run the other way; also: nearly all actives have a fitted effect of over 50% in size
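Growth recovery, yeast-based: influenza A NS1 expressed in S. cerevisiae causes slow growth, and suppressors are detected by OD600. The parent strain without NS1 is used as positive control.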
RE007 growth inh: less growth of the S. pombe RE007 Vpr strain; 360,000 compounds, 0.21% hits; S. pombe RE007 Vpr strain, BacTiter-Glo ATP luminescence, 24 h; control for the full effect not named in the record; Potency, µM (top dose mostly 92.2 µM), for inactives: at the top dose activity change, negative = less growth; AID 651644; active = well fitted falling curve with a large enough effect; inconclusive = small, poorly fitted or top-dose-only effect; inactive = no such curve, though single readings can be large or run the other way;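 also: % is scaled to controls: 0 for no effect and ±100 for the full control effect; nearly all actives have a fitted effect of over 50% in size; the assay follows cell death caused by Vpr and the record does not say whether a fall means rescue or toxicity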
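Fission yeast RE007 carrying one integrated HIV-1 vpr copy, seeded at OD 0.01 in PMG+AL medium with 23 nL pinned compound. Grown 24 h at 30 degrees; viability read by BacTiter-Glo luminescence after 5 min.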
LASV entry inh: blocks Lassa virus binding to or entry into cells; 300,000 compounds, 1.2% hits; Potency, µM (titrated, usually from 37.9 µM), without a hit: at the highest dose activity change, negative = inhibition, actives largely listed as inhibitors; Lassa virus pseudotype entry inhibition, cell reporter; control for the full effect not named in the record; active means well fitted inhibition curve with a large enough effect; inconclusive means small, poorly fitted or top-dose-only effect, or effect the other way; inactive means flat fitted curve, though single readings scatter; tested in HEK293 cells; also: % is scaled to controls: 0 for no effect and ±100 for the full control effect; nearly all actives have a fitted effect of over 50% in size; luciferase read-out
Starred values were filed as active, the others as inactive; ? = inconclusive; . = no result given; & = joins results of further samples; [ ] = another dose, or the depositor's remark. Unless noted, calls follow the shape of the dose curve; as a rule, active = well fitted curve in the direction sought with a large enough effect; inconclusive = small, poorly fitted or top-dose-only effect, or another doubt; inactive = no such curve, though single readings can be large; an effect the other way counts as inactive or inconclusive. Potency is read from the fitted curve at half-maximal effect.

The opening three records as a preview:
nr	mol	MARV entry inh	SARS PLP yeast	Cruzain inh noDet	Cruzain inh Det	2A StopGo	NS1 inh	RE007 growth inh	LASV entry inh
1	CCC1=[N+](C)CCn2c(C)ccc21	11%	1%	-2%	1.5%	-8%	-45%	-4%	1%
2	COc1ccc(C(=O)Nc2onc3c2CCCC3)cc1	17%[46.1 µM]	.	-6%	-2.8%	-67%	.	.	.
3	COc1cc(NC(=O)c2cc(C(C)C)on2)c(OC)cc1Cl	15µM*	-19%	5%	-4.1%	-8%	-9%	-19%	?

This part in full, from the first entry:
nr	mol	MARV entry inh	SARS PLP yeast	Cruzain inh noDet	Cruzain inh Det	2A StopGo	NS1 inh	RE007 growth inh	LASV entry inh
1	CCC1=[N+](C)CCn2c(C)ccc21	11%	1%	-2%	1.5%	-8%	-45%	-4%	1%
2	COc1ccc(C(=O)Nc2onc3c2CCCC3)cc1	17%[46.1 µM]	.	-6%	-2.8%	-67%	.	.	.
3	COc1cc(NC(=O)c2cc(C(C)C)on2)c(OC)cc1Cl	15µM*	-19%	5%	-4.1%	-8%	-9%	-19%	?
4	Cc1cc(C)c(S(=O)(=O)N2CCCCC2CCNC(=O)C(=O)NCc2cccnc2)c(C)c1 (stereo unspecified)	-11%	-2%	.	.	-20%	.	13%	-14%
5	Cc1ccc(NC(=O)/C=C/c2ccc(Cl)cc2)c(Br)c1	.	.	-6%	-2.0%	3%	.	.	1%[46.1 µM]
6	O=C(COc1nc2ccccc2nc1N1CCOCC1)Nc1ccc(S(=O)(=O)N2CCCC2)cc1	10%	-6%	19%	-7.0%	-9%	?	3%	5%
7	O=C(O)c1ccc(/C=N/Nc2ncc(Cl)cc2Cl)cc1	.	0%	.	.	44%[activator]	-4%	-11%	.
8	O=C(NNc1ccc([N+](=O)[O-])cc1)C1C2CCCCC21 (stereo unspecified)	11%	1%	?	-5.2%	0%	-11%	7%	-1%
9	CC(=O)Nc1cc2c(cc1C(C)=O)OCCO2	22%	-1%	-1%	7.2%	-8%	-1%	-6%	0%
10	C=CCNC(=S)NNC(=O)c1ccccc1OCC	2%[46.1 µM]	1%	.	.	13%	7%	27%	20%
11	CC(NC(=O)c1ccco1)C(=O)Nc1nccs1 (stereo unspecified)	-9%	-1%	.	.	-9%	.	-2%	9%
12	CCC(=O)Nc1cc(-c2nc3cc(C)cc(C)c3o2)ccc1C	.	.	?	1.2%	36%[activator]	.	.	1%[46.1 µM]
13	CC1(C)Cc2ccccc2-c2nnc(-c3ccc4ccccc4n3)n21	?	-28%	2%	7.7%	?	8%	13%	-24%
14	CCCCN(C)C(=O)c1nc2ccccn2c1CNC1CCC1	-10%[46.1 µM]	-1%	.	.	-6%	0%	2%	-1%[46.1 µM]
15	O=C(Nc1cccc(-c2nnc(-c3ccccc3)o2)c1)c1ccco1	-4%	-1%	-2%	-1.1%	4%	-4%	2%	2%
16	COc1ccc(OCCC(=O)OCC(=O)Nc2ccc(Br)cc2)cc1	.	-42%	-6%	-7.1%	-2%	1%	7%	.
17	COc1ccc(-c2noc(CCC(=O)N(C)c3cc(Cl)ccc3OC)n2)cc1	-3%[46.1 µM]	.	12%	-7.9%	-22%	.	.	-10%[46.1 µM]
18	COc1ccc(CNC(=O)[C@@H](NC(=O)C2CCN(C(=O)[C@@H](N)CC(C)C)CC2)C(C)C)cc1	.	2%	.	.	-21%	-9%	5%	.
19	Cc1cc(Cl)ccc1NC(=O)CN1C(=O)CSc2ccc(S(=O)(=O)N3CCOCC3)cc21	.	0%	.	.	-5%	1%	-5%	.
20	Cc1ccc2cc(C#N)c(NCCNC(=O)C3CC3)nc2c1C	?	16%	14%	1.2%	?	-45%	-13%	-2%
21	CCN1CCN(c2nc(-c3ccccc3Cl)nc3ccccc23)CC1	.	-5%	.	.	-8%	2%	-21%	.
22	COCCCNC(=O)C1CCN(S(=O)(=O)c2c(C)noc2/C=C\c2ccc(OC)cc2)CC1	-7%&-23%	0%	?	50%[activator]	-11%	-10%	-1%[3.69 µM]	0%
23	CCCn1c(=O)c2ccccc2n2c(Sc3nnnn3-c3ccccc3)nnc12	0%	1%	-2%	4.6%	-22%	6%	-9%	-5%
24	C=CCOc1ccc(C(=O)c2ccccc2)c(OCC(=O)NC2(C#N)CCCC2)c1	?	-3%	.	.	-14%	-47%	-22%	?
25	O=C1c2oc3ccccc3c(=O)c2C(c2cccnc2)N1CCCN1CCOCC1 (stereo unspecified)	18%	5%	-12%	1.3%	-4%	-4%	1%	13%

26) CCOc1ccc(NC(=S)NNC(=O)CC(C)O)cc1 (stereo unspecified)
27) CCN(CC)c1cc(Cl)c2nonc2c1N
28) COc1ccc(OC)c(/C=N/NC(=O)CSc2nnc(C)n2-c2ccccc2)c1
29) CCOc1ccc(NC(=O)NC(C)c2ccc3c(c2)OCO3)cc1 (stereo unspecified)
30) COc1cc2[nH]c(=O)n(CCC(=O)N3CCc4ccccc4C3)c(=O)c2cc1OC
31) CC1CC(=O)Nc2ccccc2N1C(=O)CN1CCN(C=O)CC1 (stereo unspecified)
32) COc1ccc2c(c1)c(CC(=O)Nc1cc(C)c(OC)c(C)c1)c(C)n2C(=O)c1ccc(Cl)cc1
33) N#Cc1ccc(-c2ccc(F)cc2)nc1SCC(=O)Nc1sc2c(c1C#N)CCC2
34) O=C(C(=O)N1CCOCC1)c1cn(Cc2ccccc2)c2ccccc12
35) COc1ccc(C(=O)Nc2ccc(Oc3nc(C)nc4sc(-c5ccccc5)cc34)cc2)cc1OC

| Screen / compound no. | 26 | 27 | 28 | 29 | 30 | 31 | 32 | 33 | 34 | 35 |
| --- | --- | --- | --- | --- | --- | --- | --- | --- | --- | --- |
| MARV entry inh | -11%[46.1 µM] | 6%[46.1 µM] | 0% | -4%[46.1 µM] | -5%&-5% | -29%[46.1 µM] | ? | ? | -1% | ? |
| SARS PLP yeast | 0% | -1% | 2% | 2% | -10%[6.58 µM] | 0% | . | 1% | 3% | -2% |
| Cruzain inh noDet | . | . | -1% | . | 5% | . | -11% | ? | . | 6% |
| Cruzain inh Det | . | . | 2.5% | . | 1.1% | . | 1.9% | -0.5% | . | -4.5% |
| 2A StopGo | 8% | -16% | -7% | 3% | -7% | -3% | -9% | -18% | 20% | -9% |
| NS1 inh | 5% | 2% | 0% | 24% | -1% | . | . | 15% | . | -4% |
| RE007 growth inh | -17% | -25% | 1% | 0% | 3% | 13% | . | 13% | -12% | 5% |
| LASV entry inh | . | 2% | 15% | -23%[46.1 µM] | -3% | 8% | -6%[46.1 µM] | -4% | -7% | -28% |

36) COCc1cc(C)nc(N2CCc3ccccc32)c1C#N
37) Cc1ccc(NC(=O)COC(=O)C(NS(=O)(=O)c2ccc(Cl)cc2)C(C)O)cc1 (stereo unspecified)
38) CCC(=O)Nc1cccc(C2=NOC3(C2)C[C@@H](C(N)=O)N(C(=O)c2ccc(OC)cc2)C3)c1 (stereo partly specified)
39) O=C(CSc1nnc(-c2ccccc2Cl)o1)Nc1ccccn1
40) Cc1ccc(OCCCCn2c(-c3ccc(Cl)cc3)nc3ccccc3c2=O)cc1
41) CC(C(=O)NNS(=O)(=O)c1cccc(C(F)(F)F)c1)n1nnc(N2CCOCC2)n1 (stereo unspecified)
42) Cc1cc2ccccn2c1C(=O)c1nc(N2CCOCC2)ncc1Cl
43) Cc1ccc(NC(=O)CN2C(=O)COc3ccc(S(=O)(=O)N4CCOCC4)cc32)cc1N(C)C
44) CCOc1cc(/C=C2/SC(=S)N(Cc3ccccc3)C2=O)ccc1O
45) COc1ccc(C2C=C(c3ccc(C)cc3)Nc3c(C(=O)Nc4ccccc4)cnn32)cc1 (stereo unspecified)

| Screen / compound no. | 36 | 37 | 38 | 39 | 40 | 41 | 42 | 43 | 44 | 45 |
| --- | --- | --- | --- | --- | --- | --- | --- | --- | --- | --- |
| MARV entry inh | 38% | ? | . | . | 0%[46.1 µM] | ? | -4% | 6%&6%[46.1 µM] | . | . |
| SARS PLP yeast | . | 5% | 0% | 0% | . | 1% | -15% | 0% | 0% | . |
| Cruzain inh noDet | -12% | -4% | . | . | -2% | . | 1% | 2% | . | ? |
| Cruzain inh Det | 1.2% | -16% | . | . | -1.4% | . | -1.1% | -1.2% | . | -2.9% |
| 2A StopGo | 14% | -23% | 6% | 0% | -17% | 61%[activator] | -13% | -19%&-10% | 22% | -3% |
| NS1 inh | -5% | -1% | 6% | -3% | . | -1% | -61% | -11% | ? | . |
| RE007 growth inh | -18% | 27% | 8% | 6% | . | -11% | 4% | -10% | -17% | . |
| LASV entry inh | 8% | 7% | . | . | 20%[46.1 µM] | 22%[46.1 µM] | -34% | 22%&-2%[46.1 µM] | . | -6%[46.1 µM] |

46) CC(=O)c1ccc(NC(=O)CSc2nnc3ccc(-c4ccccn4)nn23)cc1
47) CC(=O)NC1=NC(=O)CS1
48) O=C(O)CCCCCNC(=O)c1ccc(C(=O)NCCCCCC(=O)O)cc1
49) c1ccc(-n2ncc3c(NCCN4CCCCC4)ncnc32)cc1
50) CCCN(CCC)C(=O)c1oc2ccccc2c1NC(=O)Cc1cccc(OC)c1
51) COc1ccc(N2CC(NC(=O)COc3ccc4ccccc4c3)CC2=O)cc1 (stereo unspecified)

| Screen / compound no. | 46 | 47 | 48 | 49 | 50 | 51 |
| --- | --- | --- | --- | --- | --- | --- |
| MARV entry inh | 3% | 3% | . | 10% | . | . |
| SARS PLP yeast | -1% | 5% | 1% | -2% | -2% | . |
| Cruzain inh noDet | . | -3% | . | -5% | . | ? |
| Cruzain inh Det | . | 5.6% | . | -1.0% | . | -6.1% |
| 2A StopGo | 4% | -1% | 2% | 23% | -9% | -15% |
| NS1 inh | . | -2% | 2% | -7% | -6% | . |
| RE007 growth inh | 10% | -7% | 6% | -8% | -3% | . |
| LASV entry inh | 23% | 9% | . | 16% | . | -16%[46.1 µM] |
